# Bioassay records deposited in PubChem by Broad Institute.
# FGF22 binding: shifts melting point of recombinant human FGF22 | 1.5% of 340,000 active | recombinant FGF22 thermal shift, SYPRO orange fluorescence; percent of sucrose octasulfate shift, DMSO zero | Q9HCT0 | AID 651658 | calls only at 9.99 µM;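 active = melting point raised past a set limit in the mean and every replicate; three in four hits are not shown here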
# Target sequence (Q9HCT0 whole entry, looked up): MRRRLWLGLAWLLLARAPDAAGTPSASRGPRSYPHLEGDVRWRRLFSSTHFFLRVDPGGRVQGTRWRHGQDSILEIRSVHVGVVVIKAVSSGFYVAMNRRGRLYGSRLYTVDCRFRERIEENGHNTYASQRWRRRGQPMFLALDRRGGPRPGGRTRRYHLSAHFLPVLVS
# AF4-AF9 inh: MLL-AF4/AF9 protein interaction inhibition; inhibition, % at 10 µM; P42568; 0.47% of 350,000 active; AlphaScreen, biotin-AF4 peptide binding to FLAG-AF9;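 active = every replicate reaching a set inhibition limit, whatever the replicate mean, cut at about 25% in these data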;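 note: 0% = plate neutral control median and 100% = total signal loss; the record names both 10 and 1 µM as test concentration; the first replicate is given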
# Target sequence (P42568 whole entry, looked up): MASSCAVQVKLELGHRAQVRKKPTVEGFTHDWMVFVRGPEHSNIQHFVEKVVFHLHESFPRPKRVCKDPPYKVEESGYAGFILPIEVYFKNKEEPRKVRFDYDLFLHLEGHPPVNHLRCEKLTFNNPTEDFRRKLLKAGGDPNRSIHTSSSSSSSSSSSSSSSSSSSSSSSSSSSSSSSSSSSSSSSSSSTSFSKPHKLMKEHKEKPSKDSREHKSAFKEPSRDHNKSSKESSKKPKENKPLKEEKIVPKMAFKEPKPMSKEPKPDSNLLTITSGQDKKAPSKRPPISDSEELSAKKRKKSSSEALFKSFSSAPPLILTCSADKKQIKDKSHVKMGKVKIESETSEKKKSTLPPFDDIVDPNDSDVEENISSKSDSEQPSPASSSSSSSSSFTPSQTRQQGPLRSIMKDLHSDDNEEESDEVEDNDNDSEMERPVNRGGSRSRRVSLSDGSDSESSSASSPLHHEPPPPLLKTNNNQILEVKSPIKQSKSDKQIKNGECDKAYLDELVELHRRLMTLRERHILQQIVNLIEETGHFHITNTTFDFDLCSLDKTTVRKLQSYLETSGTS
# An asterisk follows results filed as active; i = inactive; x = not tested or not shown; & = joins results of further samples. An excerpt; the hit share may differ from the screen's.
# Fields – FGF22 binding	AF4-AF9 inh
N#C[C@@H]1[C@@H](c2ccc(C#Cc3cccc(F)c3)cc2)[C@H](CO)N1C(=O)C1CCC1
→ i	-1.2
O=S(=O)(N[C@H]1CC[C@H](CCn2cc(-c3ccccn3)nn2)O[C@@H]1CO)c1cccc(Cl)c1
→ i	0.1
CCCNC(=O)N1CC2(C1)[C@H](c1ccccc1)[C@H](CO)N2CC1CCOCC1
→ i	-2.3
C[C@H](CO)N1C[C@H](C)[C@@H](CN(C)S(C)(=O)=O)Oc2ncc(-c3cccc(F)c3)cc2C1=O
→ i	-0.5
CC(C)NC(=O)N(C)C[C@@H]1Oc2c(NS(=O)(=O)c3ccc(F)cc3)cccc2C(=O)N([C@@H](C)CO)C[C@H]1C
→ i	-1.3
COCC(=O)N(C)C[C@H]1Oc2ncc(C#CC(C)(C)O)cc2C(=O)N([C@H](C)CO)C[C@H]1C
→ i	-4.5
C[C@H](CO)N1C[C@H](C)[C@@H](CN(C)Cc2ccc3c(c2)OCO3)Oc2ccc(NC(=O)Nc3cccc4ccccc34)cc2C1=O
→ i	6.2
CCCNC(=O)N1C[C@@H](C)[C@@H](OC)CN(C)C(=O)c2ccc(NC(C)=O)cc2OC[C@H]1C
→ i	-3.2
O=C(Cc1cccnc1)N1CC(=O)N2[C@H](C1)[C@@H](c1ccc(C3=CCCCC3)cc1)[C@@H]2CO
→ i	0.2
CC(C)NC(=O)N(C)C[C@@H]1Oc2ccc(NC(=O)Nc3ccccc3)cc2CC(=O)N([C@@H](C)CO)C[C@H]1C
→ i	2.2
O=C(C[C@H]1C[C@@H]2c3cc(NC(=O)c4cccnc4)ccc3O[C@@H]2[C@@H](CO)O1)NCc1cccnc1
→ i	-0.6
CCCc1cn(CC[C@@H]2CC[C@@H](NC(=O)Cc3cccnc3)[C@@H](CO)O2)nn1
→ i	-2.0
C[C@H](CO)N1C[C@H](C)[C@H](CN(C)Cc2ccc(-c3ccccc3)cc2)Oc2cc(C#CC(C)(C)O)ccc2S1(=O)=O
→ i	-0.2
C[C@@H]1CN([C@H](C)CO)C(=O)c2cc(NC(=O)Cc3ccccc3)ccc2O[C@@H]1CN(C)C(=O)Nc1cccc2ccccc12
→ i	-1.3
CCS(=O)(=O)N1[C@H](C#N)[C@H](c2ccc(C#CCC3CCCC3)cc2)[C@@H]1CO
→ i	4.4
CN(C)C(=O)C[C@@H]1CC[C@@H]2[C@H](COc3ccc(NC(=O)C4CCOCC4)cc3C(=O)N2C)O1
→ i	-0.5
CN1CCN(C(=O)C[C@@H]2CC[C@H](NC(=O)Cc3ccccn3)[C@H](CO)O2)CC1
→ i	-1.4
CO[C@H](CN(C)C(=O)c1ccccc1F)[C@H](C)CN([C@H](C)CO)S(=O)(=O)c1ccc(F)cc1
→ i	-0.9
CN1C(=O)c2cc(NC(=O)c3cnccn3)ccc2OC[C@H]2O[C@H](CC(=O)O)CC[C@H]21
→ i	-1.5
O=C(Nc1ccc(F)cc1)N[C@@H]1CC[C@H](CCn2cc(C3(O)CCCC3)nn2)O[C@@H]1CO
→ i	1.2
CCNC(=O)C[C@H]1CC[C@H](NC(=O)C2CC2)[C@@H](CO)O1
→ i	1.4
C[C@H](CO)N1C[C@H](C)[C@@H](CN(C)C(=O)CCCN(C)C)OCc2cnnn2CCCC1=O
→ i	-1.5
COc1ccc(C#Cc2ccc([C@@H]3[C@@H](CO)N4CCCCN(C(=O)Nc5ccc(F)cc5)C[C@@H]34)cc2)cc1
→ i	-7.2
Cc1noc(C)c1NC(=O)N(C)C[C@@H]1Oc2c(NC(=O)NC3CCCCC3)cccc2C(=O)N([C@H](C)CO)C[C@@H]1C
→ i	-2.5
COc1ccc(C#Cc2ccc3c(c2)[C@@H]2[C@@H](CCN2C(=O)c2cccc(F)c2)[C@@H](CO)N3)cc1
→ i	-14.6
CCC(=O)N(C)C[C@@H]1Oc2cc(C#CC(C)(C)O)ccc2S(=O)(=O)N([C@H](C)CO)C[C@@H]1C
→ i	0.2
Cc1ccc(S(=O)(=O)N[C@@H]2CC[C@@H](CCNC(=O)C3CCC3)O[C@H]2CO)cc1
→ i	-4.3
C[C@@H]1CN([C@@H](C)CO)C(=O)c2cc(NC(=O)CCC(F)(F)F)ccc2O[C@@H]1CN(C)Cc1ccc(Oc2ccccc2)cc1
→ i	3.4
COc1ccccc1NC(=O)N1C[C@@H](O)COC[C@@H]2O[C@H](CC(=O)NCc3ccccc3)CC[C@H]21
→ i	-5.7
C/C=C/c1ccc2c(c1)O[C@H](CN(C)Cc1ccccn1)[C@H](C)CN([C@H](C)CO)S2(=O)=O
→ i	2.4
C[C@@H]1CCCCO[C@H](CN(C)Cc2ccccc2)[C@@H](C)CN([C@H](C)CO)C(=O)c2cc(NC(=O)Nc3cccc4ccccc34)ccc2O1
→ i	-0.1
CCCN(C)C[C@H]1OCCCC[C@H](C)Oc2ccc(NS(=O)(=O)c3ccc(C)cc3)cc2C(=O)N([C@@H](C)CO)C[C@H]1C
→ i	4.5
C[C@H](CO)N1C[C@H](C)[C@H](CN(C)Cc2ccc(C(F)(F)F)cc2)Oc2ccc(NS(=O)(=O)c3ccccc3)cc2C1=O
→ i	3.2
CO[C@@H]1CN(C)C(=O)c2ccc(NS(=O)(=O)c3cn(C)cn3)cc2OC[C@@H](C)N(C)C[C@H]1C
→ i	-3.0
COc1ccccc1S(=O)(=O)N[C@H]1C=C[C@H](CC(=O)NCc2cc(F)cc(F)c2)O[C@@H]1CO
→ i	-2.7
CCC(=O)N(C)C[C@@H]1Oc2cc(C#Cc3ccccc3)ccc2S(=O)(=O)N([C@@H](C)CO)C[C@@H]1C
→ i	1.1
COc1ccc2c3c([nH]c2c1)[C@@H](CO)N(Cc1nccs1)CC31CN(C(=O)C2CCCC2)C1
→ i	-1.3
Cc1cc2c(nc1C)CCCN2S(=O)(=O)c1c(C)noc1C
→ x	-3.9
COc1cccc(S(=O)(=O)N(C)C[C@@H]2Oc3ncc(Br)cc3C(=O)N([C@H](C)CO)C[C@@H]2C)c1
→ i	0.8&2.9
COCC#Cc1ccc2c(c1)O[C@@H](CN(C)S(=O)(=O)c1cccc(F)c1)[C@H](C)CN([C@@H](C)CO)S2(=O)=O
→ i	3.5
CC=Cc1ccc2n(c1=O)C[C@@H]1[C@@H](CO)[C@H](C(=O)NCc3ccc(F)cc3)N(Cc3cncnc3)[C@H]21 (mixture of isomers)
→ i	6.5
Cc1ccc(S(=O)(=O)N(C)C[C@H]2OCCCC[C@@H](C)Oc3ccc(NC(=O)Nc4c(C)noc4C)cc3C(=O)N([C@H](C)CO)C[C@H]2C)cc1
→ i	0.9
CCC(=O)N1C[C@@H](C)[C@H](OC)CN(C)C(=O)c2ccc(NC(=O)Nc3cccc(F)c3)cc2OC[C@@H]1C
→ i	2.5
C[C@H](CO)N1C[C@H](C)[C@@H](CN(C)C(=O)Nc2ccc3c(c2)OCO3)OCCCC[C@H](C)Oc2ccc(NC(=O)Nc3ccc4c(c3)OCO4)cc2C1=O
→ i	1.1
COCC(=O)N(C)C[C@H]1Oc2ncc(C#Cc3ccccc3OC)cc2C(=O)N([C@H](C)CO)C[C@@H]1C
→ i	-3.5
C[C@H](CO)N1C[C@H](C)[C@H](CN(C)Cc2ccc(Cl)c(Cl)c2)Oc2ccc(N(C)C)cc2C1=O
→ i	31.9*
Cc1ccc(S(=O)(=O)N[C@@H]2CC[C@@H](CC(=O)N3CCC(Cc4ccccc4)CC3)O[C@@H]2CO)cc1
→ i	2.5
C[C@@H]1CCCCO[C@H](CN(C)S(=O)(=O)c2ccccc2)[C@H](C)CN([C@@H](C)CO)C(=O)c2cc(NC(=O)NC3CCCCC3)ccc2O1
→ i	1.2
S=C(NN=C1CCCCC1=NNC(=S)N1CCOCC1)N1CCOCC1
→ i	-0.8
C[C@H]1CN([C@@H](C)CO)C(=O)c2cccc(NC(=O)c3ccc(-c4nccs4)cc3)c2O[C@@H]1CN(C)Cc1ccc(C(=O)Nc2ccccc2N)cc1
→ i	0.6
Cc1noc(C)c1NC(=O)N(C)C[C@H]1Oc2ncc(C3=CCCC3)cc2C(=O)N([C@@H](C)CO)C[C@H]1C
→ i	-2.3
Cc1cccc(-c2ccc([C@H]3[C@@H](CO)N4CCCCN(S(=O)(=O)c5cccc(C)c5)C[C@@H]34)cc2)c1
→ i	-4.3
Cc1noc(C)c1NC(=O)Nc1ccc2c(c1)C(=O)N(C)[C@H]1CC[C@@H](CC(=O)N[C@H]3CCN(Cc4ccccc4)C3)O[C@H]1CO2
→ i	3.7
C[C@@H](O)C#Cc1ccc([C@H]2[C@@H](CO)N3CCCCN(S(=O)(=O)Cc4ccccc4)C[C@H]23)cc1
→ i	-3.4
OC[C@@H]1[C@@H](c2ccc(C#Cc3ccccc3)cc2)[C@H]2CN(CC3CCOCC3)CCCCN12
→ i	11.9
CO[C@H]1CN(C)C(=O)c2cc(NC(C)=O)ccc2OC[C@H](C)N(C(=O)c2ccc(F)cc2)C[C@H]1C
→ i	1.5
C[C@H](CO)N1C[C@H](C)[C@H](CN(C)C(=O)Nc2ccc(F)cc2)OCCCC[C@H](C)Oc2ccc(NC(=O)Nc3ccccc3)cc2C1=O
→ i	-0.9
COc1ccc(S(=O)(=O)N(C)C[C@@H]2OCCCC[C@H](C)Oc3ccc(NC(=O)CCCN(C)C)cc3C(=O)N([C@@H](C)CO)C[C@H]2C)cc1
→ i	1.9
C[C@H](CO)N1C[C@H](C)[C@@H](CN(C)S(=O)(=O)c2ccc(F)cc2)Oc2ccc(NC(=O)Cc3ccccc3)cc2CC1=O
→ i	0.5
C[C@H](CO)N1C[C@H](C)[C@H](CN(C)Cc2ccc(Cl)c(Cl)c2)Oc2ccc(NC(=O)Nc3ccc4c(c3)OCO4)cc2C1=O
→ i	3.6

# Next part.
molecule	FGF22 binding	AF4-AF9 inh
O=C(C[C@@H]1C=C[C@H](NC(=O)Nc2ccc(F)cc2)[C@@H](CO)O1)NCc1ccccn1	i	-3.2
O=C(Nc1cc(F)ccc1F)N1CCCCN2[C@H](CO)[C@H](c3ccc(-c4cncnc4)cc3)[C@@H]2C1	i	-5.3
COc1cccc(NC(=O)N(C)C[C@@H]2Oc3cc(/C=C/c4ccccc4)ccc3S(=O)(=O)N([C@H](C)CO)C[C@H]2C)c1	i	-3.1
C[C@H](CO)N1C[C@H](C)[C@H](CN(C)C(=O)NC2CCCCC2)Oc2ccc(NC(=O)C3CC3)cc2C1=O	i	-2.7
O=C(C[C@@H]1C[C@@H]2c3cc(NC(=O)C4CCOCC4)ccc3O[C@@H]2[C@@H](CO)O1)NCc1cc(F)ccc1F	i	7.7
COc1ccc(CN(C)C[C@H]2Oc3ccc(NS(=O)(=O)c4c(C)noc4C)cc3C(=O)N([C@H](C)CO)C[C@H]2C)cc1	i	1.0
C[C@@H]1CN([C@H](C)CO)C(=O)c2cccc(NC(=O)C3CCCCC3)c2O[C@@H]1CN(C)S(=O)(=O)c1ccc(Cl)cc1	i	0.9
O=C(c1ccccc1)N1C[C@H]2[C@@H](c3ccccc31)[C@H](CO)N2C(=O)CN1CCOCC1	i	-10.5
Cc1noc(C)c1NC(=O)Nc1ccc2c(c1)C(=O)N([C@H](C)CO)C[C@H](C)[C@H](CN(C)S(=O)(=O)c1cn(C)cn1)OCCCC[C@H](C)O2	i	-2.8
Cn1cnc(S(=O)(=O)N[C@H]2CC[C@H](CC(=O)Nc3ccccc3)O[C@@H]2CO)c1	i	-1.5
NCC[C@@H]1CC[C@@H](NC(=O)NC2CCCCC2)[C@@H](CO)O1	i	2.5
Cc1ccc(S(=O)(=O)N(C)C[C@H]2Oc3ccc(NC(=O)CCCN(C)C)cc3CC(=O)N([C@H](C)CO)C[C@H]2C)cc1	i	2.3
O=C(N[C@H]1C=C[C@H](CC(=O)N2CCCCC2)O[C@@H]1CO)c1ccc2c(c1)OCO2	i	-0.5
COc1ccccc1CN1[C@@H]2c3ccc(C4=CCCC4)c(=O)n3C[C@H]1[C@H](CO)[C@H]2C(=O)N(C)C	i	1.4
N#C[C@@H]1[C@H](c2ccccc2-c2cccc(F)c2)[C@@H](CO)N1C(=O)C1CC1	i	1.4
COc1ccccc1C(=O)Nc1ccc2c(c1)C(=O)N(C)C[C@@H](OC)[C@@H](C)CN(C)[C@@H](C)CO2	i	0.4
C[C@@H]1CN([C@@H](C)CO)S(=O)(=O)c2ccc(-c3ccncc3)cc2O[C@@H]1CN(C)C(=O)C1CC1	i	0.0
CNC[C@@H]1Oc2ccc(NC(=O)CCC(F)(F)F)cc2CC(=O)N([C@@H](C)CO)C[C@@H]1C	i	-12.5
CCC(=O)N(C)C[C@@H]1Oc2cc(-c3ccccc3OC)ccc2S(=O)(=O)N([C@H](C)CO)C[C@H]1C	i	0.9
